HIV Env fusion = HIV envelope-mediated fusion inhibition | HeLa-JRFL Env/CEM21 cell fusion, luciferase | inhibition, % at 12.3 µM | hit rate 1.1% among 360,000 | AID 651610;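 active = mean replicate inhibition score of at least 50 and every replicate individually at or above 50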;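 note: 0% = plate neutral controls and 100% = maraviroc near 300 nM; one replicate is shown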
* = called active by the depositor; [ ] = dose if it differs, or a comment.

SMILES | HIV Env fusion
CN(C)C(=O)[C@H]1[C@H](CO)[C@H]2Cn3c(ccc(-c4cncnc4)c3=O)[C@H]2N1Cc1cc(F)ccc1F | 6.5[16.7 µM]
O=C(CCN1CCCCC1)NCC[C@H]1CC[C@@H](NC(=O)C2CCCCC2)[C@@H](CO)O1 | 3.8[16.7 µM]
C[C@H](CO)N1C[C@H](C)[C@H](CN(C)C(=O)Nc2ccc3c(c2)OCO3)OCc2ccccc2-c2c(n(C)c3ccccc23)C1=O | 50.2[16.7 µM]
CO[C@H]1CN(C)C(=O)c2cc(NS(=O)(=O)c3c(C)noc3C)ccc2OC[C@H](C)NC[C@H]1C | 12.7[16.7 µM]
CO[C@H]1CN(C)C(=O)c2cc(NC(=O)c3nc4ccccc4s3)ccc2OC[C@H](C)N(Cc2cncnc2)C[C@@H]1C | 17.1[16.7 µM]
CCCN(C)C[C@@H]1OCCCC[C@@H](C)Oc2ccc(NC(=O)NC(C)C)cc2C(=O)N([C@@H](C)CO)C[C@@H]1C | -8.6[16.7 µM]
CNC[C@H]1Oc2ncc(-c3ccc(OC)cc3)cc2C(=O)N([C@H](C)CO)C[C@H]1C | -9.8[16.7 µM]
CO[C@H]1CN(C)C(=O)c2cc(NC(C)=O)ccc2OC[C@@H](C)NC[C@@H]1C | 11.2[16.7 µM]
O=C(Nc1ccc2c(c1)[C@H]1C[C@@H](CC(=O)N3CCCCC3)O[C@H](CO)[C@H]1O2)C1CCOCC1 | -5.3[16.7 µM]
CN(C)C(=O)[C@@H]1[C@@H](CO)[C@@H]2Cn3c(ccc(C4=CCCC4)c3=O)[C@H]1N2S(=O)(=O)c1cn(C)cn1 | -4.5[16.7 µM]
CC(C)NC(=O)N(C)C[C@@H]1OCCCC[C@H](C)Oc2ccc(NC(=O)Cc3ccccc3)cc2C(=O)N([C@H](C)CO)C[C@H]1C | 12.7[16.7 µM]
CCCNC(=O)N1CC2(CCN(C(=O)CC3CC3)CC2)c2c(n(C)c3cc(OC)ccc23)[C@H]1CO | -4.6[16.7 µM]
C[C@H](CO)N1C[C@H](C)[C@@H](CN(C)S(=O)(=O)c2ccc(F)cc2)Oc2c(NC(=O)c3cnccn3)cccc2C1=O | 12.4[16.7 µM]
CO[C@H]1CC[C@H]2CCOc3c(C#N)cccc3C(=O)N(C)C[C@H](c3ccccc3)CC(=O)N(C)C[C@H]1O2 | -7.1[16.7 µM]
CO[C@@H]1CN(C)C(=O)c2cc(NC(=O)C3CCOCC3)ccc2OC[C@H](C)N(Cc2cccnc2)C[C@@H]1C | -4.2[16.7 µM]
COCC(=O)Nc1ccc2c(c1)OC[C@@H](C)N(Cc1cccnc1)C[C@H](C)[C@@H](OC)CN(C)C2=O | -0.1[16.7 µM]
Cc1cccc(NC(=O)Nc2ccc3c(c2)C(=O)N(C)[C@@H]2CC[C@H](CC(=O)NCc4ccccc4Cl)O[C@@H]2CO3)c1 | 31.6[16.7 µM]
COc1ccc2c3c([nH]c2c1)[C@H](CO)N(Cc1ccccc1)CC31CCN(S(=O)(=O)c2ccc(C)cc2)CC1 | 2.3[16.7 µM]
O=C(NCC1CCCCC1)[C@H]1[C@H](CO)[C@H]2Cn3c(cccc3=O)[C@@H]1N2C(=O)c1cccnc1 | 11.7[16.7 µM]
C[C@H](CO)N1C[C@H](C)[C@@H](CN(C)Cc2ccc(-c3ccccc3)cc2)Oc2ccc(NC(=O)Cc3cn(C)c4ccccc34)cc2C1=O | 15.6[16.7 µM]
CCOC(=O)C(CNc1ccc(OCc2ccccc2)cc1)NC(=O)c1ccccc1 (stereo not drawn) | 48.6
CO[C@H]1CN(C)C(=O)c2ccc(NC(C)=O)cc2OC[C@H](C)N(C(=O)c2ccccc2)C[C@@H]1C | -2.8[16.7 µM]
CO[C@@H]1CN(C)C(=O)c2cc(NC(=O)NC(C)C)ccc2OC[C@H](C)N(CC2CC2)C[C@H]1C | -20.0[16.7 µM]
COc1ccc(CN(C)C[C@H]2OCCCC[C@@H](C)Oc3ccc(NC(=O)C4CCCCC4)cc3C(=O)N([C@H](C)CO)C[C@H]2C)cc1 | 12.7[16.7 µM]
C[C@@H]1CCCCO[C@H](CN(C)C(=O)CCCN(C)C)[C@@H](C)CN([C@@H](C)CO)C(=O)c2cc(NC(=O)c3ccccc3)ccc2O1 | -11.7[16.7 µM]

In a second layout: four of the compounds above
| compound | HIV Env fusion |
| --- | --- |
| CC(C)NC(=O)N(C)C[C@@H]1OCCCC[C@H](C)Oc2ccc(NC(=O)Cc3ccccc3)cc2C(=O)N([C@H](C)CO)C[C@H]1C | 12.7[16.7 µM] |
| CCCNC(=O)N1CC2(CCN(C(=O)CC3CC3)CC2)c2c(n(C)c3cc(OC)ccc23)[C@H]1CO | -4.6[16.7 µM] |
| C[C@H](CO)N1C[C@H](C)[C@@H](CN(C)S(=O)(=O)c2ccc(F)cc2)Oc2c(NC(=O)c3cnccn3)cccc2C1=O | 12.4[16.7 µM] |
| CO[C@H]1CC[C@H]2CCOc3c(C#N)cccc3C(=O)N(C)C[C@H](c3ccccc3)CC(=O)N(C)C[C@H]1O2 | -7.1[16.7 µM] |

Reformatted: results already given.
HIV Env fusion	SMILES
11.7[16.7 µM]	O=C(NCC1CCCCC1)[C@H]1[C@H](CO)[C@H]2Cn3c(cccc3=O)[C@@H]1N2C(=O)c1cccnc1
15.6[16.7 µM]	C[C@H](CO)N1C[C@H](C)[C@@H](CN(C)Cc2ccc(-c3ccccc3)cc2)Oc2ccc(NC(=O)Cc3cn(C)c4ccccc34)cc2C1=O

(further entries)
SMILES | HIV Env fusion
C[C@@H]1CN([C@H](C)CO)C(=O)c2cc(-c3ccc(C(=O)N(C)C)cc3)cnc2O[C@@H]1CN(C)C(=O)c1ccncc1 | -5.9[16.7 µM]
CO[C@H]1CC[C@@H]2CCN(C)C(=O)CCCN(C)C(=O)c3cccc(C#N)c3OC[C@H]1O2 | 0.3[16.7 µM]
COc1cccc(C2NC(=S)N(Cc3ccc(F)cc3)C(C)=C2C(C)=O)c1 (stereo not drawn) | 39.7
CC(=O)O[C@@H]1C=C[C@@H](C#Cc2ccc(C(C)(C)C)cc2)O[C@@H]1COC(=O)Nc1ccccc1 | -16.1
Cc1cc(O)cc(=O)n1-c1cccc(C(F)(F)F)c1 | -9.4
COc1cccc(NC(=O)C[C@@H]2CC[C@H]3[C@H](COc4ccc(NC(=O)C5CCOCC5)cc4C(=O)N3C)O2)c1 | -2.0[16.7 µM]
O=C(C1CCCC1)N1[C@@H](CO)[C@@H](c2ccccc2)C12CN(CCC(F)(F)F)C2 | 6.9[16.7 µM]
CCOC(=O)C1=CCN(S(=O)(=O)c2ccc([N+](=O)[O-])cc2)C1c1ccc(C)cc1 (stereo not drawn) | 3.6
N#Cc1c(N)[nH]c(C(=O)c2ccccc2)c1-c1ccc(Br)cc1 | -16.9
CO[C@@H]1CN(C)C(=O)c2ccc(NS(=O)(=O)c3cn(C)cn3)cc2OC[C@@H](C)N(Cc2cccc(C(F)(F)F)c2)C[C@H]1C | 9.5[16.7 µM]
CCCCCCCCN1C(=O)[C@@H](CC(=O)NCc2cccc(C(F)(F)F)c2)C[C@@]2(C(=O)OC)C1=C[C@H](C(C)(C)C)O[C@@H]2C | 52.4
O=C(C[C@H]1CC[C@@H]2[C@H](COC[C@H](O)CN2C(=O)c2ccc3c(c2)OCO3)O1)NC1CCCC1 | -4.3[16.7 µM]
C[C@@H]1CN([C@@H](C)CO)C(=O)c2cc(NC(=O)Nc3ccc(C(F)(F)F)cc3)ccc2O[C@@H](C)CCCCO[C@H]1CN(C)C | 3.2[16.7 µM]
CC1(O)C(=O)C2(C)C=CC1C1C(=O)N(c3ccccc3)C(=O)C12 (stereo not drawn) | -39.6
CO[C@@H]1CN(C)C(=O)c2cc(NC(=O)C3CCC3)ccc2OC[C@@H](C)N(Cc2ccccn2)C[C@@H]1C | 10.7[16.7 µM]
C[C@H]1CN([C@@H](C)CO)C(=O)c2cccc(NC(=O)Nc3ccccc3)c2O[C@H]1CN(C)C(=O)Nc1ccccc1 | 7.1[16.7 µM]
CC(C)c1cn(CC[C@H]2CC[C@@H](NC(=O)C3CC3)[C@@H](CO)O2)nn1 | -29.8[16.7 µM]
COc1ccc(CN(C)C[C@@H]2Oc3ccc(NC(=O)Cc4ccccc4)cc3C(=O)N([C@@H](C)CO)C[C@@H]2C)cc1 | -1.0[16.7 µM]
C[C@@H]1CN([C@H](C)CO)C(=O)c2ccccc2-c2ccccc2CO[C@@H]1CN(C)Cc1ccncc1 | -24.6[16.7 µM]
O=C(NCc1ccccc1)[C@H]1CCCN1C(=O)[C@H]1CCCN1C(=O)c1ccc(OC(F)(F)F)cc1 | 19.7
CCCNC(=O)N1CC2(C1)CN(C(=O)CC)[C@H](CO)c1[nH]c3cc(OC)ccc3c12 | -9.2[16.7 µM]
N#Cc1ccc2nc(-c3ccc(CN4CCC(n5cc(-c6ccccc6)[nH]c5=O)CC4)cc3)c(-c3ccccc3)nc2c1 | 4.5
CO[C@H]1CC[C@H]2CCOc3c(C#N)cccc3C(=O)N(C)C[C@H](OC)[C@@H](C)C(=O)N(C)C[C@H]1O2 | 13.5[16.7 µM]
C[C@@H]1CN([C@H](C)CO)C(=O)c2cc(C3=CCCCC3)cnc2O[C@H]1CN(C)S(C)(=O)=O | 4.2[16.7 µM]
C[C@@H]1CN([C@H](C)CO)C(=O)Cc2cc(NS(=O)(=O)c3cn(C)cn3)ccc2O[C@H]1CN(C)S(=O)(=O)c1ccc(F)cc1 | -23.6[16.7 µM]

Additional structures follow.
SMILES | HIV Env fusion
Cc1ccc(S(=O)(=O)N(C)C[C@@H]2Oc3c(NS(=O)(=O)c4cn(C)cn4)cccc3C(=O)N([C@H](C)CO)C[C@H]2C)cc1 | -7.7[16.7 µM]
CN1CCN(C(=O)C[C@H]2CC[C@H]3[C@@H](COC[C@H](O)CN3C(=O)Cc3ccccc3)O2)CC1 | -0.6[16.7 µM]
C[C@H](CO)N1C[C@H](C)[C@H](CN(C)C(=O)C2CC2)Oc2ncc(C3=CCCC3)cc2C1=O | -8.0[16.7 µM]
COc1ccccc1-c1ccc2c(c1)O[C@@H](CN(C)CC1CC1)[C@@H](C)CN([C@H](C)CO)S2(=O)=O | 11.4[16.7 µM]
C[C@@H]1CN([C@@H](C)CO)C(=O)c2cccc(NC(=O)NC3CCCCC3)c2O[C@H]1CN(C)Cc1ccc(C(=O)O)cc1 | 8.2[16.7 µM]
COc1ccc(CN(C)C[C@@H]2Oc3ccc(NC(=O)Cn4cnnn4)cc3C(=O)N([C@@H](C)CO)C[C@H]2C)cc1 | 4.9[16.7 µM]
CC(C)(C)[S@@](=O)N1Cc2cc(C(=O)NCCc3ccncc3)nc(-c3cccc(-c4cccc(C#N)c4)c3)c2[C@H]1CCO | -2.7[16.7 µM]
CC1CCN(C(=O)c2ncn3c2C(=O)NC[C@H]3C)CC1 | 39.9
COc1ccc2c3c(n(C)c2c1)[C@H](CO)N(C(=O)c1ccccn1)CC31CN(C(=O)c2ccccn2)C1 | -0.1[16.7 µM]
C[C@H](CO)N1C[C@H](C)[C@@H](CN(C)C(=O)C2CCCCC2)OCCCC[C@H](C)Oc2ccc(NS(C)(=O)=O)cc2C1=O | -25.4[16.7 µM]
CO[C@H]1CN(C)C(=O)c2cc(NC(=O)Nc3cccc(F)c3)ccc2OC[C@H](C)N(C(=O)Nc2c(C)noc2C)C[C@@H]1C | -5.0[16.7 µM]
O=C(Nc1ccc(C(F)(F)F)cc1)Nc1ccc2c(c1)[C@@H]1C[C@@H](CC(=O)N3CCc4ccccc4C3)O[C@H](CO)[C@@H]1O2 | -21.7[16.7 µM]
CCc1c(-c2cccc(OC)c2)ncn1CCc1ccccc1OC | -4.6
O=C(NCC1CCCCC1)[C@H]1[C@H](CO)[C@H]2Cn3c(ccc(-c4cncnc4)c3=O)[C@@H]1N2 | 3.1[16.7 µM]
CO[C@H]1CC[C@@H]2CCN(C)C(=O)[C@@H](C)CN(C)C(=O)c3cccc(C#N)c3OC[C@H]1O2 | 5.6[16.7 µM]
C[C@@H]1CN([C@H](C)CO)S(=O)(=O)c2ccc(-c3ccccc3)cc2O[C@@H]1CN(C)C(=O)c1ccc2c(c1)OCO2 | 12.2[16.7 µM]
CCOC(=O)C1=C(C(=O)OCC)C2N(Cc3ccc(C(F)(F)F)cc3)c3ccccc3[C@@]23C[C@@H](C(=O)OC)N(S(=O)(=O)c2ccc(OC)cc2)C3=N1 (stereo partly drawn) | -4.1
O=C(C1CCCC1)N1CC(=O)N2[C@@H](CO)[C@@H](c3ccc(-c4ccccc4F)cc3)[C@@H]2C1 | 18.8[16.7 µM]
CO[C@@H]1CN(C)C(=O)c2cc(NC(C)=O)ccc2OC[C@@H](C)NC[C@@H]1C | 2.4[16.7 µM]
CN1C(=O)c2cc(NC(=O)c3ccc(F)c(F)c3)ccc2OC[C@@H]2O[C@@H](CC(=O)N[C@H]3CCN(Cc4ccccc4)C3)CC[C@H]21 | -15.0[16.7 µM]
C[C@@H]1CCCCO[C@@H](CN(C)C)[C@H](C)CN([C@@H](C)CO)C(=O)c2cc(NS(=O)(=O)c3cn(C)cn3)ccc2O1 | 8.7[16.7 µM]
CCCCOCCCNC(=O)C[C@H]1C[C@@]2(C(=O)OC)C(=C[C@H](C3CCCC3)O[C@@H]2C)N(Cc2ccccc2)C1=O | -22.4
CCCCCCCCN1C(=O)[C@@H](CC(=O)N2CCSCC2)C[C@@]2(C(=O)OC)C1=C[C@H](C(C)(C)C)O[C@@H]2C | -2.5
O=C(NC1CCCC1)N1CC2(C1)[C@@H](c1ccccc1)[C@@H](CO)N2CC1CCCC1 | 22.5[16.7 µM]
C[C@H](CO)N1C[C@H](C)[C@@H](CN(C)Cc2ccccc2)Oc2ncc(-c3cccnc3)cc2C1=O | 7.4[16.7 µM]
CO[C@H]1CN(C)C(=O)c2ccc(NC(=O)c3cnccn3)cc2OC[C@H](C)NC[C@H]1C | -8.7[16.7 µM]
COc1cccc(CN(C)C(=O)[C@H]2O[C@@H](n3cnc4c(=O)[nH]c(N)nc43)[C@H](O)[C@@H]2O)c1 | -1.0
CO[C@@H]1CN(C)C(=O)c2cccc(C#N)c2OC[C@H]2O[C@H](CC[C@H]2OC)CCN(C)C(=O)[C@H]1C | 1.3[16.7 µM]
COc1ccc(S(=O)(=O)N(C)C[C@@H]2Oc3ccc(NS(=O)(=O)c4cn(C)cn4)cc3C(=O)N([C@H](C)CO)C[C@@H]2C)cc1 | 5.8[16.7 µM]
CO[C@H]1CN(C)C(=O)c2ccc(NC(=O)C3CCOCC3)cc2OC[C@@H](C)N(C(=O)c2ccccc2)C[C@@H]1C | 6.4[16.7 µM]

Only part of the results is shown. The share of hits here may be higher or lower than overall.
